# Screening data deposited in PubChem by several laboratories.
# ugtP null kill = growth inhibition of ugtP-null S. aureus, primary screen, RN4220 ugtP deletion, OD600; 16 h; some inactives read as strong as hits; growth inhibition, % (concentration not given with the values); 0.54% of 330,000 active; AID 1259309, 2017;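 active = z-score under -3 and OD600 up to 0.15 on both plates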;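 note: plate controls were untreated wells for no effect and antibiotic for full effect; wells of about 80 µL received 100 nL stock; the first replicate is given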
# BJeLR lethal = MLPCN primary cell-based screen for lethality selective to Ras in HRASV12 cells. BJeLR (HRASV12) viability, CellTiter-Glo ATP luminescence, 48 h; reference of the scale not given here. inhibition, % (test concentration not listed). 0.17% of 300,000 active. AID 1554, 2009;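 active = replicate mean above 50%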;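 note: 50 nL library stock added to about 25 µL; numbers are from one replicate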
# Bead autofluor = compound fluorescence in toxin protease inhibitor counterscreen. AID 624483. fluorescence intensity (concentration not given with the values). 3.1% of 360,000 active. compound autofluorescence counterscreen, microsphere flow cytometry; active compounds read high;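 active = at least 3 SD above the mean of all compounds, about 16000 in these data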;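 note: 100 nL of 1 mM stock went into each well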
# Sa RN4220 lethal = growth inhibition of S. aureus RN4220, primary screen, OD600. 16 h. inhibition, % (test concentration not listed). 0.33% of 330,000 active. AID 1259311, 2017;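 active = z-score of -3 or lower and OD600 up to 0.18 on both plates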;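 note: plate controls were untreated cells for no effect and reference antibiotic for full effect; stock transfer was 100 nL into about 80 µL; one replicate is shown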
# Mtb hypoxia inh = PubChem AID 1159583 | M. tuberculosis hypoxia-regulated fluorescent reporter, fluorescence | fluorescence inhibition, % (concentration not given with the values) | 0.1% of 300,000 active;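 active = 35 to 45% if threefold the growth effect, above 45% if 1.5-fold the growth effect; inactive = the rest, general growth blockers included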;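 note: wells of about 50 µL received 100 nL stock; 0% = vehicle wells and 100% = reference inhibitor wells; whole bacteria with a GFP reporter of the hypoxia response; strong numbers were not always called active; many hits fall short of the cut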
# PrP UTR inh = inhibition of PrP 5' UTR reporter expression. inhibition, % (test concentration not listed). 0.35% of 340,000 active. cell-based PrP 5' UTR mRNA reporter, plate reader;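 active = every replicate at 50% or more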;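 note: 0 = median of the neutral control wells; tested in H4 reporter cells; numbers are from one replicate; inactives centre near -14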
# Mtb hypoxia inh growth = second read-out of Mtb hypoxia inh, no call of its own (marks repeat the call); growth inhibition, %; measured here: M. tuberculosis growth (absorbance);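 0% = vehicle and 100% = reference antibiotic; read after six days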
# * marks the source's active call; other numbers are inactive results; x = not tested or not shown; & = joins results of further samples.
# Sample of the layout, 19 compounds:
no.	SMILES	ugtP null kill	BJeLR lethal	Bead autofluor	Sa RN4220 lethal
1	COc1ccc(CC(=O)NNC(=O)c2ccccn2)cc1	7	3	3201	2.6
2	CC(CCC(=O)O)C1CCC2C3C(O)CC4CC(O)CCC4(C)C3CC(O)C12C (centres undefined)	-3	-2	5709&5936	13
3	CCOc1ccc(NC(=O)c2ccc(Cl)c(NC(=O)c3ccco3)c2)cc1	1	22	3511	2.1
4	Cn1c(=O)c2c(nc(-n3ccnc3)n2Cc2ccc(Cl)cc2Cl)n(C)c1=O	-4	-1	6347	-0.8
5	CS(=O)(=O)c1ccc(CNC(=O)C2(C(F)(F)F)CC(=CCCO)CCCO2)cc1 (centres undefined)	-2	x	x	3.8
6	COc1ccc(S(=O)(=O)N(C)c2ccc(C(=O)N3CCN(C)CC3)cc2)cc1	x	6	5702	x
7	O=C(COC(=O)CCN1C(=O)/C(=C\C=C\c2ccccc2)SC1=S)Nc1ccc(Br)cc1	x	-6	4781	x
8	Cc1cccc(C(=O)Nc2cccc(C(=O)NN=Cc3ccccn3)c2)c1	1	x	x	3.7
9	O=C(COC(=O)c1cc(S(=O)(=O)N2CCOCC2)c(Cl)cc1Cl)Nc1ncc(C(F)(F)F)cc1Cl	-10	x	9302	6.5
10	COc1ccc(C2C3=C(CC(C)(C)CC3=O)Nc3c2c(=O)[nH]c(=O)n3Cc2ccccc2)cc1OC (centres undefined)	2	19	23655*	2.4
11	O=C(CCN1CCN(Cc2ccccc2)CC1)Nc1cccc(Br)c1	5	8	3512	0.8
12	CSCC[C@H](NC(=O)COc1ccc(Cl)cc1Cl)c1nc2ccccc2[nH]1	-6	-10	10182	3.2

no.	Mtb hypoxia inh	Mtb hypoxia inh growth	PrP UTR inh
1	3	-4	-36
2	3	2	-18
3	7	-3	-5
4	-6	4	-1
5	4	-10	x
6	x	x	-42
7	x	x	23
8	9	-6	x
9	16	8	-14
10	0	-2	-18
11	7	10	-9
12	1	3	-19

no.	SMILES	ugtP null kill	BJeLR lethal	Bead autofluor	Sa RN4220 lethal
13	O=S(=O)(c1ccc(Br)cc1)N1CCOC12CCCCC2	5	1	4577	4.2
14	CC(C)c1nc(SCC(=O)NC2CCCC2)c2c(=O)n(C)c(=O)n(C)c2n1	4	-4	4691	2.9
15	CNC(=O)c1[nH]cnc1C(=O)NC(C)C(=O)OC(C)(C)C (centres undefined)	7	x	x	5.2
16	CN(C(=O)c1ccncc1)C1CC(C)(C)N(O)C(C)(C)C1	2	-1	4882	-3.7
17	COc1ccccc1N(CC(=O)NC1CCCCC1)C(=O)CNC(=O)c1cccs1	5	0	3553	0.3
18	CC1CCCCC12NC(=O)N(Cn1nnc3ccccc3c1=O)C2=O (centres undefined)	3	1	2921	3.2
19	CCn1c(C(C#N)C(=NS(=O)(=O)c2cccs2)c2ccccc2)nc2ccccc21 (centres undefined)	10	x	x	16

no.	Mtb hypoxia inh	Mtb hypoxia inh growth	PrP UTR inh
13	9	11	-18
14	10	0	7
15	2	-4	x
16	x	x	-11
17	6	4	-12
18	x	x	-18
19	9	-3	x

# The list itself, from the start:
no.	SMILES	ugtP null kill	BJeLR lethal	Bead autofluor	Sa RN4220 lethal
1	COc1ccc(CC(=O)NNC(=O)c2ccccn2)cc1	7	3	3201	2.6
2	CC(CCC(=O)O)C1CCC2C3C(O)CC4CC(O)CCC4(C)C3CC(O)C12C (centres undefined)	-3	-2	5709&5936	13
3	CCOc1ccc(NC(=O)c2ccc(Cl)c(NC(=O)c3ccco3)c2)cc1	1	22	3511	2.1
4	Cn1c(=O)c2c(nc(-n3ccnc3)n2Cc2ccc(Cl)cc2Cl)n(C)c1=O	-4	-1	6347	-0.8
5	CS(=O)(=O)c1ccc(CNC(=O)C2(C(F)(F)F)CC(=CCCO)CCCO2)cc1 (centres undefined)	-2	x	x	3.8
6	COc1ccc(S(=O)(=O)N(C)c2ccc(C(=O)N3CCN(C)CC3)cc2)cc1	x	6	5702	x
7	O=C(COC(=O)CCN1C(=O)/C(=C\C=C\c2ccccc2)SC1=S)Nc1ccc(Br)cc1	x	-6	4781	x
8	Cc1cccc(C(=O)Nc2cccc(C(=O)NN=Cc3ccccn3)c2)c1	1	x	x	3.7
9	O=C(COC(=O)c1cc(S(=O)(=O)N2CCOCC2)c(Cl)cc1Cl)Nc1ncc(C(F)(F)F)cc1Cl	-10	x	9302	6.5
10	COc1ccc(C2C3=C(CC(C)(C)CC3=O)Nc3c2c(=O)[nH]c(=O)n3Cc2ccccc2)cc1OC (centres undefined)	2	19	23655*	2.4

no.	Mtb hypoxia inh	Mtb hypoxia inh growth	PrP UTR inh
1	3	-4	-36
2	3	2	-18
3	7	-3	-5
4	-6	4	-1
5	4	-10	x
6	x	x	-42
7	x	x	23
8	9	-6	x
9	16	8	-14
10	0	-2	-18

no.	SMILES	ugtP null kill	BJeLR lethal	Bead autofluor	Sa RN4220 lethal
11	O=C(CCN1CCN(Cc2ccccc2)CC1)Nc1cccc(Br)c1	5	8	3512	0.8
12	CSCC[C@H](NC(=O)COc1ccc(Cl)cc1Cl)c1nc2ccccc2[nH]1	-6	-10	10182	3.2
13	O=S(=O)(c1ccc(Br)cc1)N1CCOC12CCCCC2	5	1	4577	4.2
14	CC(C)c1nc(SCC(=O)NC2CCCC2)c2c(=O)n(C)c(=O)n(C)c2n1	4	-4	4691	2.9
15	CNC(=O)c1[nH]cnc1C(=O)NC(C)C(=O)OC(C)(C)C (centres undefined)	7	x	x	5.2
16	CN(C(=O)c1ccncc1)C1CC(C)(C)N(O)C(C)(C)C1	2	-1	4882	-3.7
17	COc1ccccc1N(CC(=O)NC1CCCCC1)C(=O)CNC(=O)c1cccs1	5	0	3553	0.3
18	CC1CCCCC12NC(=O)N(Cn1nnc3ccccc3c1=O)C2=O (centres undefined)	3	1	2921	3.2
19	CCn1c(C(C#N)C(=NS(=O)(=O)c2cccs2)c2ccccc2)nc2ccccc21 (centres undefined)	10	x	x	16
20	Cc1cc(C)cc(Nc2nc3c([nH]2)c(=O)n(C)c(=O)n3C)c1	-4	-5	2591	4.3

no.	Mtb hypoxia inh	Mtb hypoxia inh growth	PrP UTR inh
11	7	10	-9
12	1	3	-19
13	9	11	-18
14	10	0	7
15	2	-4	x
16	x	x	-11
17	6	4	-12
18	x	x	-18
19	9	-3	x
20	12	-2	5

no.	SMILES	ugtP null kill	BJeLR lethal	Bead autofluor	Sa RN4220 lethal
21	FC(F)(F)c1ccc(Cl)c(NN=Cc2ccc(N3CCOCC3)s2)c1	-8	x	x	3.3
22	C=CCn1c(Cc2cccs2)nnc1SCC(=O)NC1CC1	6	8	6185	1.5
23	O=C(CCl)N1CCN(S(=O)(=O)Cc2ccccc2)CC1	-3	x	3687	2.7
24	COc1cc(/C=C2\SC(=S)N(NC(=O)c3ccncc3)C2=O)ccc1O	6	3	4576	-2.6
25	Cn1c(SCCC(=O)O)nnc1-c1ccncc1	2	2	9214	5.2
26	CCOC(=O)c1ccc(NC(=O)C(=O)NCC2CCCO2)cc1 (centres undefined)	3	0	2276	1.0
27	O=c1c2ccccc2nnn1CSc1nnc(Nc2ccccc2)s1	3	-3	4054	2.5
28	CCCNC(=O)c1cc(SC)ccc1Cl	6	-7	20823*	4.5
29	CC(=O)N/C(=C/c1ccc(OC(F)F)cc1)C(=O)O	12	0	1946	3.3
30	O=C(NNC(=O)c1cc(OCC(F)(F)F)ccc1OCC(F)(F)F)c1ccc(Cl)c(Cl)c1	-12	-7	2919	9.2

no.	Mtb hypoxia inh	Mtb hypoxia inh growth	PrP UTR inh
21	4	6	x
22	-3	-5	-11
23	22	25	8
24	1	5	-18
25	-6	6	-24
26	x	x	1
27	x	x	-22
28	3	7	-20
29	3	2	-18
30	x	x	8

no.	SMILES	ugtP null kill	BJeLR lethal	Bead autofluor	Sa RN4220 lethal
31	CC(NC(=O)c1sc2ccccc2c1Cl)C1CCCO1 (centres undefined)	3	3	2577	6.5
32	Cc1ccc(C)c(NC(=O)CN(C)S(=O)(=O)c2ccc(F)cc2)c1	13	3	6851	5.2
33	O=C(COc1cccnc1[N+](=O)[O-])Nc1ccc2c(c1)OC(F)(F)O2	14	10	2772	0.9
34	Cc1ccnc(SCCn2c(N3CCC(C)CC3)nc3c2c(=O)n(C)c(=O)n3C)n1	-4	2	7585	1.3
35	CN(C)c1cccc(C(=O)OCCNC(=O)c2cccc(S(=O)(=O)N3CCOCC3)c2)c1	0	0	5856	5.0
36	COC(=O)c1ccc(NC(=O)CN2CCN(c3ccccc3C)CC2)cc1	3	-1	7117	-2.7
37	COc1cc(C)c(NC(=S)Nc2ccc(Cl)c(Cl)c2)cc1OC	-6	-3	1931	19
38	CC1(C)Cc2cccc(OCC(=O)NCc3cccs3)c2O1	2	-3	5934	2.9
39	N#CN1CCC(NS(=O)(=O)c2ccc(C(F)(F)F)cc2)CC1	-5	x	3844	-0.5
40	O=C(NC1CCCCC1)c1ccc(Cn2cc(Br)cn2)o1	-9	-2	x	-12

no.	Mtb hypoxia inh	Mtb hypoxia inh growth	PrP UTR inh
31	4	2	-56
32	11	4	-8
33	2	11	-22
34	5	9	-17
35	-1	-6	-16
36	14	12	-34
37	-6	-4	-10
38	-1	-5	8
39	2	7	3
40	10	13	-11

no.	SMILES	ugtP null kill	BJeLR lethal	Bead autofluor	Sa RN4220 lethal
41	COC(=O)CNC(=O)c1cccs1	-1	-9	4317	0.3
42	CC1(C)C(c2cccs2)=[N+]([O-])C2(CCCCC/C2=N\NC(N)=O)N1O (centres undefined)	x	10	2454	x
43	Cc1cnc(C(=O)OCC(=O)NCCc2ccccc2)cn1	1	7	6703	2.0
44	CCOC(=O)c1cc(C#N)c(SCC(N)=O)[nH]c1=O	9	9	4334	5.7
45	CCC(/C=N/NC(=O)C1COc2ccccc2O1)CC (centres undefined)	x	-10	2067	x
46	Cc1ccc(S(=O)(=O)c2nc(-c3cccs3)oc2N2CCC(C(N)=O)CC2)cc1	-1	x	4053	1.0
47	Cc1ccc(NS(=O)(=O)c2ccc3[nH]c(=O)oc3c2)c(C)c1	9	-6	6720	-0.3
48	O=C(O)c1cnn2c(C(F)(F)F)cc(-c3ccccc3)nc12	-15	-8	7185	-6.0
49	NS(=O)(=O)c1ccc(CNC(=O)/C=C/c2c(F)cccc2Cl)cc1	4	-1	4709	0.3
50	CCC(Sc1nncn1C)C(=O)Nc1nnc(-c2ccc(Cl)cc2)s1 (centres undefined)	11	-9	5772	11

no.	Mtb hypoxia inh	Mtb hypoxia inh growth	PrP UTR inh
41	x	x	-4
42	x	x	-16
43	6	9	-21
44	3	9	-20
45	x	x	-2
46	1	5	3
47	1	-2	3
48	-9	4	-30
49	4	-1	-27
50	1	3	-3

no.	SMILES	ugtP null kill	BJeLR lethal	Bead autofluor	Sa RN4220 lethal
51	O=C(CSc1nncs1)NNC(=O)c1ccccc1Br	1	x	3718	1.3
52	O=C(CCC(=O)Nc1ccc(Br)cc1)N/N=C/c1ccccc1O	x	-6	4273	x
53	CCc1ccc(NC(=O)CSc2nnc(C)c(=O)n2N)cc1	10	-6	4580	5.5
54	O=C(NC1=NCCS1)c1cc(-c2cccs2)nc2ccccc12	7	-8	4225	-0.9
55	O=c1[nH]c2cc(NCCO)c([N+](=O)[O-])cc2[nH]1	0	0	3489	1.6
56	CCNC(=O)CN(c1ccc(C)cc1)S(=O)(=O)c1ccccc1	4	-11	6662	3.1
57	CCC(=O)Nc1nc(C)c(-c2csc(Nc3ccccn3)n2)s1	30	-13	3333	12
58	Cn1nc(NC(=O)C(F)(F)F)c2ncc(-c3ccc(Cl)cc3)nc21	x	-10	4553	x
59	Oc1ccc(N=Cc2ccc(O)c(O)c2)cc1	-2	9	7789	10
60	COc1ccc(N2CC(C(=O)NCc3ccco3)CC2=O)cc1 (centres undefined)	16	13	4523	4.3
61	Cc1ccc(S(=O)(=O)Nc2cccc(C(=O)NC3CCN(Cc4ccccc4)CC3)c2)cc1F	6	6	6126	0.4
62	O=C(O)COc1ccc(/C=N/NC(=O)Cc2ccc(Cl)cc2)cc1	x	6	5345	x

no.	Mtb hypoxia inh	Mtb hypoxia inh growth	PrP UTR inh
51	2	3	-9
52	x	x	10
53	3	-1	-13
54	6	3	-5
55	4	4	-8
56	10	7	-35
57	5	-3	-77
58	x	x	-24
59	11	-4	-33
60	2	-4	-27
61	10	-2	5
62	x	x	-17

# An unsorted share of the library; 4% or so of the library scored in one or more.
